LANA-H2B inh = blocks KSHV LANA binding to histone H2A/H2B; inhibition, % (test concentration not listed); AID 2629; cell-free LANA-H2A/H2B peptide, fluorescence polarization; Q9QR71; 0.6% of 320,000 active; in the data active = inhibition mostly above about 10%, no sharp cut-off; inactive = mostly below about 6.7%;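 also: stock transfer was 7.5 nL into about 10 µL; 0% = median of vehicle wells and 100% = median of positive control wells; one replicate is shown; the record names a cut of 25% in any replicate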
Bfl-1 A1 inh = inhibitors of the anti-apoptotic protein A1, read as caspase activation | MEF A1-2A-BIM cells, Caspase-Glo 3/7 luminescence, 3 h; percent of clofoctol response, vehicle zero | 0.066% of 330,000 active | caspase activation, % (no concentration beside the values);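 active = over half of replicate activation scores above 10%, or exactly half above 10 with the replicate mean above 10; inconclusive = replicate mean below 10 yet half the replicates above 10; inactive = over half of replicates below 10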;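 also: wells of about 30 µL received 50 nL stock; many hits fall short of the cut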
UCH37 DUB inh = blocks the human deubiquitinase UCH37 | Q9Y5K5 | purified proteasome/UCH37, Ub-AMC cleavage fluorescence | inhibition, % (no concentration beside the values) | 0.33% of 330,000 active | AID 588478;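 active = mean of two replicates above 20%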;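 also: 0% = compound-free wells with enzyme and 100% = wells lacking proteasome; stock transfer was 100 nL into about 20 µL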
Target sequence (Q9Y5K5 whole entry, looked up): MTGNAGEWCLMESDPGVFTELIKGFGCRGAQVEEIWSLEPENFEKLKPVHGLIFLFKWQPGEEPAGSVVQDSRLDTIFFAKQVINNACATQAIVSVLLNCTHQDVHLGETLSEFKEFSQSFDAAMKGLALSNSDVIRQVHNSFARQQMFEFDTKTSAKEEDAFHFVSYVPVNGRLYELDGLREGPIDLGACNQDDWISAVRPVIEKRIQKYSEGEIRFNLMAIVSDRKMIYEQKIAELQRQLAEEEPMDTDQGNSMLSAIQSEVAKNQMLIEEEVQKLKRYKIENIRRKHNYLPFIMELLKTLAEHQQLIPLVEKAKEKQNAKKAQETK
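Test system – human UCH37 enzyme supplied as purified proteasome complex · Incubation – 30 min preincubation with enzyme, 25 min cleavage at room temperature · Detection – AMC fluorescence from Ub-AMC cleavage, excitation 355 nm, emission 460 nm · Benchmarks – no-proteasome wells (full inhibition) and compound-free wells (no inhibition)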
RanGTP-Imp inh = disruptors of Ran-importin-beta complex formation – biochemical, FRET, CFP-Ran, YFP-importin-beta, homogeneous, primary screen; cell-free CFP-Ran/YFP-importin-beta FRET ratio; AID 2216; inhibition, % (no concentration beside the values); 1.1% of 300,000 active;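 active = most replicates above 15%; inconclusive = exactly half above 15%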;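 also: 0% = DMSO wells and 100% = Ran loaded with GDP instead of GTP; wells of about 40 µL received 100 nL stock; the first replicate is given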
Calb FLC = C. albicans growth modulation with fluconazole | C. albicans CaCi-2 (fluconazole-resistant clinical isolate) + fluconazole, Alamar Blue growth, 48 h | growth inhibition, % (concentration not given with the values) | 0.57% of 300,000 active | AID 1979;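 active = most replicates above 75%; inconclusive = exactly half above 75%; inactive = most below 75%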;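 also: all wells also contain fluconazole at 8 µg/ml as a sub-toxic cotreatment; 0% = median of DMSO wells and 100% = median of geldanamycin control wells; wells of about 8 µL received 7.5 nL stock; the first replicate is given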
Beta apoptosis = beta cell apoptosis inhibition | INS-1E cytokine-induced death, ATP luminescence, 48 h; percent of positive-control rescue, neutral wells zero | 0.8% of 300,000 active | protection from apoptosis, % (test concentration not listed);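 active = all replicates at 75% or more, or half of them and the mean; inconclusive = half reach 75% but not the mean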;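 also: 0% = cytokine-treated negative control wells and 100% = positive control rescue; higher means more ATP so stronger rescue from cytokine killing; wells of about 40 µL received 100 nL stock; the first replicate is given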
B2AR ag = agonists of human beta-2 adrenergic receptor inducing internalization | P07550 | Am2.2-beta2AR cells, FAP receptor internalization, flow cytometry; reference of the scale not given here | response, % (test concentration not listed) | 0.43% of 340,000 active | AID 504454;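 active = response above a set limit, near 3 SD of response in nonfluorescent compounds, cut at about 42% in these data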;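 also: stock transfer was 100 nL into about 11 µL; a reference agonist was the positive control; negative values mostly stem from fluorescent compounds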
Target sequence (P07550 whole entry, looked up): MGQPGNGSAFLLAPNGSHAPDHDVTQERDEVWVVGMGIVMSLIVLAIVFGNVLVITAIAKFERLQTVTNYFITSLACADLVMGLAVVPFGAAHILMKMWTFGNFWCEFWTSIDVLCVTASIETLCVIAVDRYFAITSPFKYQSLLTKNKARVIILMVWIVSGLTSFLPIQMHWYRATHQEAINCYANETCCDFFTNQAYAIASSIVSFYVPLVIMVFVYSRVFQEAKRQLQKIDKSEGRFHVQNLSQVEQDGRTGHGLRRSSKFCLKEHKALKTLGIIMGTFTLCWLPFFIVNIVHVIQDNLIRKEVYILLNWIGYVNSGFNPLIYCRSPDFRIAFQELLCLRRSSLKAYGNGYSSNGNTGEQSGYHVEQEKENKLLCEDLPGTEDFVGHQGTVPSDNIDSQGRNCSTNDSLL
T cruzi repl = blocks replication of Trypanosoma cruzi; T. cruzi beta-gal in NIH3T3, luminescence, 90 h; inhibition, % (concentration not given with the values); 1.4% of 300,000 active; AID 1885;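 active = mean inhibition across valid replicates above about 55%, limit read from the data; inconclusive = mean below that limit but half or more replicates reach it; inactive = mean below it, under half of replicates reach it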;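 also: signal also drops with host cell toxicity which is not excluded here; 0% = plate median of DMSO wells and 100% = zero luminescence signal; higher percent means less beta-gal luminescence so fewer parasites; stock transfer was 50 nL into about 50 µL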
* = called active by the depositor; ? = inconclusive; nt = not tested or not shown.

SMILES	LANA-H2B inh	Bfl-1 A1 inh	UCH37 DUB inh	RanGTP-Imp inh	Calb FLC	Beta apoptosis	B2AR ag	T cruzi repl
CCN(C(=O)COC(=O)CCC(=O)c1cccs1)C1CCCCC1	0.7	-0.7	3.8	nt	nt	-1	11	nt
O=C(CNC(=O)c1ccco1)Nc1ccc(OC(F)F)cc1	4.7	1.3	2.8	-6.3	-4	-5	-1	-2
CCCn1c(SC(C)C(=O)NCC2CCCO2)nc2sc3c(c2c1=O)CCC3 (stereo unspecified)	-25	2.1	5.0	2.9	13	3	-7	42
Cc1c(NC2=CC(=O)CCC2)c(=O)n(-c2ccccc2)n1C	-5.2	0.3	5.7	18*	5	1	-2	-18
C=C1C(=O)C=C[C@]2(C)C[C@@H]3OC(=O)[C@](C)(O)[C@H]3C[C@@H]12	10	0.6	nt	0.0	24	nt	6	-40
CCCn1c(C(C)NS(=O)(=O)c2ccccc2)n[nH]c1=S (stereo unspecified)	2.1	0.2	3.3	-1.4	4	3	3	-2
COc1ccccc1C(NC(=O)CC(C)C)c1c(O)ccc2ccccc12 (stereo unspecified)	1.4	1.4	-1.5	0.1	33	-2	7	7
CCOc1ccccc1-n1c(SCC(=O)N(C(C)C)C(C)C)nnc1-c1cccnc1	-4.2	0.8	0.4	6.0	6	2	-15	-2
O=C(/C=C/c1cccc([N+](=O)[O-])c1)NCCc1ccc(F)cc1	5.7	0.6	3.4	1.1	1	0	-7	10
Cc1ccc2c(CN3CCCCC3)cc(=O)oc2c1	-2.8	2.0	1.8	-0.8	4	1	1	-21
O=C(NNC(=O)c1cc(Cl)ccc1O)c1ccc(NS(=O)(=O)c2cccs2)cc1	1.6	-0.5	-8.0	0.4	84*	nt	-2	-12
Cc1ccc(C(=O)N/N=C(/CC(=O)c2cccs2)C(F)(F)F)cc1	2.3	-0.2	nt	-2.1	1	15	7	8
Cc1ccccc1-n1nnnc1SCC(=O)Nc1ccc(N2CCN(C)CC2)cc1	0.7	1.3	6.2	0.7	-31	-8	4	23
CCOc1ccc(CCNC(=O)c2cccc(S(=O)(=O)N3CCCCC3)c2)cc1OCC	3.7	0.3	0.5	-0.8	-2	0	2	12
C/C(=N\O)C(C)NC(=O)c1ccccc1 (stereo unspecified)	-1.5	0.8	nt	1.6	-3	-3	3	-6
CCOC(=O)C1=C(C)N(CCCC(=O)O)C(=O)NC1c1ccc(OC)cc1 (stereo unspecified)	-1.9	-0.7	3.7	3.0	-9	nt	6	-12
COc1ccc(CCNC(=O)CSc2cn(Cc3ccccc3)c3ccccc23)cc1OC	3.0	-0.1	0.5	-0.2	-3	0	1	15
Cc1n[nH]c(C)c1-c1nc2ccccc2[nH]1	0.7	1.5	0.2	10	-6	-7	-4	-12
Cc1ccc2c(C)nc(SC(C(=O)c3ccccc3)c3ccccc3)nc2c1 (stereo unspecified)	4.7	1.2	5.5	1.5	4	6	-1	28
CC(C)NC(=O)CN(C(=O)CCC(=O)Nc1nccs1)c1ccc2c(c1)OCO2	4.5	0.2	4.0	-2.2	33	-2	-10	4
O=c1[nH]c(SCCOc2ccccc2F)nc2ccccc12	-0.2	0.2	-1.7	-0.1	-7	8	-2	9
CCOc1cccc2sc(N(CCN(C)C)C(=O)c3cc4ccccc4cc3OC)nc12	-1.3	0.4	2.9	3.5	16	7	21	21
CC(C)=CC1C(C(=O)Nc2ccc(Br)cn2)C1(C)C (stereo unspecified)	-7.3	-0.1	4.0	-0.7	1	10	-6	40
C=C(C)COc1ccc2c(C)c(CC(=O)OC)c(=O)oc2c1C	-1.7	0.4	-103	nt	nt	12	16	nt
Cc1cc(C)cc(NC(=O)c2ccc(CN3CCc4ccccc4C3)cc2)c1	-0.7	-1.3	0.7	-2.8	-14	-8	-6	18

The closing 2 records of the part above open the next one:
SMILES	LANA-H2B inh	Bfl-1 A1 inh	UCH37 DUB inh	RanGTP-Imp inh	Calb FLC	Beta apoptosis	B2AR ag	T cruzi repl
C=C(C)COc1ccc2c(C)c(CC(=O)OC)c(=O)oc2c1C	-1.7	0.4	-103	nt	nt	12	16	nt
Cc1cc(C)cc(NC(=O)c2ccc(CN3CCc4ccccc4C3)cc2)c1	-0.7	-1.3	0.7	-2.8	-14	-8	-6	18
CCC(C)(C)n1nnnc1CN1CCSCC1	0.7	0.5	1.9	1.9	-6	nt	7	-2
Cc1cc(Nc2ccc(C)c(F)c2)n2ncnc2n1	2.5	0.0	5.2	-0.9	-4	-12	0	-5
COC(=O)[C@]1(C)N[C@H](c2ccc(-c3cccc(Cl)c3)cc2)[C@@H]2C(=O)N(C)C(=O)[C@@H]21	-0.4	-1.6	3.0	nt	nt	-1	-1	nt
Cc1noc(C)c1C(=O)Nc1nc(-c2ccc([N+](=O)[O-])cc2)cs1	-4.2	-0.6	2.2	0.2	1	22	14	4
ONC(=Nc1ccccc1)c1ccc(Cl)cc1	-0.1	0.6	2.0	-1.3	5	-6	12	-10
CC(C)N(Cc1ccccc1)S(=O)(=O)N(C)C	-1.3	0.2	-1.3	-0.7	-9	-11	-4	-13
O=C(CSc1nnc(Cc2ccccc2)n1-c1ccccc1)N1CCOCC1	-6.3	-0.5	0.1	4.4	-13	-2	1	7
CCC(OC(=O)c1nsc(Cl)c1Cl)C(=O)NCCOC (stereo unspecified)	4.1	1.9	0.0	-1.1	-16	1	-3	2
CN(CCCNC(=O)Cn1cc2c(n1)CCCC2)C1CCCCC1	-2.3	-0.1	-0.1	-1.1	8	-8	3	12
O=C(NCCc1ccccc1)c1ccc(-c2ccccc2C(F)(F)F)o1	-3.9	0.4	4.0	nt	nt	-7	nt	nt
O=C(CCCN1C(=O)S/C(=C/c2ccccc2)C1=S)Nc1ccc(C(=O)O)cc1	2.2	-9.4	10	-1.6	-3	-12	-8	-21
O=C(CSc1nnc(-c2ccncc2)n1-c1ccc(F)cc1)NC(=O)NCc1ccco1	-4.5	0.4	1.9	1.0	-4	-8	12	-9
O=C(O)c1cc2c(cc1NC(=O)c1c(F)cccc1F)OCCCO2	-3.5	0.3	3.7	-2.6	-8	-5	3	-6
CCOc1ccccc1NC(=O)CCC(=O)O	6.7	0.9	2.4	4.7	1	-5	3	-10
Cc1c(CCO)c(=O)n(-c2ccccc2)n1S(=O)(=O)c1c(Cl)cc(Cl)cc1Cl	-2.6	1.4	-1.5	0.6	-1	nt	0	-5
COc1ccc(C2CC(=O)c3cnn(-c4nc(C)cc(C)n4)c3C2)cc1 (stereo unspecified)	0.5	-0.6	1.3	nt	50	2	-15	9
Cc1cc(/C=N/n2cnnc2)c(C)n1-c1cccc(Cl)c1	-2.0	0.8	nt	4.3	-1	-4	3	3
CC1(C)CC(=O)CC(=NCC(=O)O)C1	2.7	0.3	1.0	?	-14	-2	1	-12
COc1ccc(CN2CCN(C(=O)CCC(=O)Nc3nnc(CC(C)C)s3)CC2)cc1F	1.8	0.3	3.6	5.5	20	5	-6	-13
Cc1cc(C(=O)N2CCCc3ccccc32)no1	3.4	-0.1	0.6	3.0	1	-8	-1	-24
CC(=O)c1ccc(N(C(=O)CNC(=O)c2ccco2)C(C(=O)NC2CCCC2)c2cccnc2)cc1 (stereo unspecified)	1.2	0.6	2.7	-0.1	5	7	1	0
CCNC(=S)N/N=C/c1cc(C)n(-c2ccc(Cl)cc2)c1C	3.8	0.9	nt	0.9	-23	nt	-9	-1
CN(C(=O)COC(=O)c1cc2c(s1)CCCCC2)C1CCS(=O)(=O)C1 (stereo unspecified)	2.6	0.7	1.9	-1.7	0	-4	-3	-8
COc1ccc(N(C)S(=O)(=O)c2cccc(C(=O)Nc3nnc(C)s3)c2)cc1	-0.3	0.5	0.8	nt	nt	3	0	nt
O=S(=O)(NCCCc1ccccc1)c1cccc2nsnc12	3.7	2.8	3.6	1.8	3	2	-3	-3

Continuation.
SMILES	LANA-H2B inh	Bfl-1 A1 inh	UCH37 DUB inh	RanGTP-Imp inh	Calb FLC	Beta apoptosis	B2AR ag	T cruzi repl
Cc1cccc(NCC(=O)N/N=C\c2ccc[nH]2)c1	-1.7	0.5	nt	7.9	-2	nt	-4	8
O=C(CSc1oc(-c2ccccc2)nc1S(=O)(=O)c1ccccc1)NCC1CCCO1 (stereo unspecified)	-1.6	0.5	3.4	nt	nt	-4	-4	-4
O=C(NCc1cc(C(F)(F)F)cc(C(F)(F)F)c1)C12CN(Cc3ccccc3)CC1C(c1cccc([N+](=O)[O-])c1)=NO2 (stereo unspecified)	0.5	0.5	2.2	1.7	8	0	3	49
CC(C)Oc1ccc(C2CC(=O)N(c3ccc(N(C)C)cc3)C2=O)cc1 (stereo unspecified)	0.8	-0.3	2.8	-0.9	-13	-3	11	-5
CC(C)c1onc(C(=O)N2CCCCC2C)c1[N+](=O)[O-] (stereo unspecified)	2.5	-0.5	1.3	-2.1	-20	-3	3	-12
O=C(COc1ccc([N+](=O)[O-])cc1)N1CCN(c2nnc(-c3ccccc3)c3ccccc23)CC1	-0.9	0.1	6.8	0.5	11	-2	-5	-3
O=C(Cc1ccc(Br)cc1)N1CCN(c2ccc(F)cc2)CC1	0.5	0.4	4.1	1.8	5	-2	8	0
Brc1ccccc1-c1cnco1	1.3	0.3	2.0	2.1	2	-3	2	7
COc1ccccc1N1CCN(C(=O)CSc2ncccc2-c2nc3ccccc3[nH]2)CC1	-3.0	-0.9	-13	-9.4	44	12	1	12
CN(CC(=O)Nc1cccc(F)c1)C(=O)Cn1c(=O)oc2ccccc21	-4.7	-0.2	1.3	nt	nt	-5	-7	nt
COc1ccc(Cn2nnnc2C(c2ccc(N(C)C)cc2)N2CCC(C)CC2)cc1 (stereo unspecified)	2.7	-0.1	4.8	-493	-11	-1	11	5
CCc1ccccc1NC(=S)N(CCCN1CCN(C)CC1)Cc1cccs1	0.5	-0.4	5.6	3.3	16	1	-3	-7
NC(C(=O)O)C1CC(Cl)=NO1 (stereo unspecified)	-14	-0.7	nt	-2.5	nt	-9	nt	-6
CN1CCCN(C(=O)c2ccc(Br)cc2)CC1	0.6	0.2	0.4	3.2	3	4	4	3
CC(NC(=O)c1cccc(C(F)(F)F)c1)C1CCCO1 (stereo unspecified)	1.8	0.3	2.5	-5.0	4	8	2	-4
C=CCOc1ccc(/C=C/C(=O)OCC(=O)NCc2ccco2)cc1	-3.9	-0.6	0.4	-2.2	13	-5	-14	-3
CCCCn1c(SCC(=O)Nc2cc(C)on2)nc2ccccc2c1=O	1.5	-0.5	-2.1	3.4	-1	-6	2	-9
CC(C)NC(=O)CN1CCN(c2ncccn2)CC1	-2.4	0.2	-0.4	-0.3	1	-5	2	-7
COc1ccc(C2(CNC(=O)c3ccc(OC)c([N+](=O)[O-])c3)CCCCC2)cc1OC	-5.0	0.1	4.9	-1.2	-7	-10	2	21
O=C(CSc1ccc(-c2ccncc2)nn1)c1ccccc1	0.6	0.8	6.0	3.4	-4	-3	-11	-14
Cc1ccn2c(C(=O)N/N=C/c3ccc(CNC(=O)C(=O)Nc4ccc(C)c(C)c4)o3)c(C)nc2c1	-0.9	-4.9	nt	0.1	5	0	nt	4
O=C(COC(=O)c1ccc(OC(F)F)cc1)NCCCN1CCCC1=O	-0.9	1.1	1.5	1.3	-8	-4	-4	3

From PubChem
